Source: PubChem
gsp ag: activates gsp, the McCune-Albright syndrome mutation | AID 624287 | gsp mutant cells, cAMP HTRF, 30 min; control for the full effect not named in the record | 340,000 tested, 0.13% active | Potency, µM (titrated, usually from 76.9 µM), for the others: top-dose activation (cAMP increase), usual class: activators; active = well fitted activation curve with a large enough effect; inconclusive = small, poorly fitted or top-dose-only effect, or another doubt; inactive = no such curve, though single readings can be large or run the other way; cell line not stated here;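 also: phosphodiesterase inhibitor Ro 20-1724 added with compounds to block cAMP breakdown; potency is read from the fitted curve at half-maximal effect; nearly all actives have a fitted effect of over 60% in size; about a fifth of the inactives were tested at one dose only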
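Cells stably selected in G418 were plated at 2000/well, grown 16-24 hr, then given compounds in DMSO with the PDE inhibitor […] (300 uM solution added) for 30 min at 37C; cAMP was read by HTRF.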
gsp antagonist: antagonists of gsp mutant (McCune-Albright syndrome); 340,000 tested, 0.4% active; gsp-mutant cells, cAMP HTRF, 30 min; control for the full effect not named in the record; AID 624288; Potency, µM (series often up to 76.9 µM), for inactives: at the highest dose activity change, negative = inhibition, usual class: inhibitors; active = falling curve of any shape with a large fitted effect; inconclusive = falling curve, mostly with a smaller effect; inactive = flat or rising curve; cell line not stated here;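 also: intracellular cAMP measured with PDE inhibitor Ro 20-1724 present during compound exposure; potency is read from the fitted curve at half-maximal effect; % is scaled to controls: 0 for no effect and ±100 for the full control effect; nearly all actives have a fitted effect of over 65% in size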
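HTRF cAMP measurement after 30 min RT detection following 30 min, 37C compound treatment alongside […] (added as 300 uM solution) in G418-selected cells seeded at 2000/well and grown 16–24 h.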
Menin-MLL FL inh: menin-MLL binding inhibition, fluorescein peptide | Fluorescence polarization, fluorescein-MLL peptide displacement from menin | FP activity change, % at 61.4 µM | 290,000 tested, under 10 active | AID 1766; inconclusive = falling polarisation curve, or a change in total fluorescence; inactive = total fluorescence flat and polarisation flat or rising; no compound was filed as active; the % refers to the polarisation; negative = inhibition;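 also: % of control where 0% means no effect; inhibitors lower the polarisation; unlabelled MLL peptide was the positive control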
Sfp PPTase inh: blocks B. subtilis Sfp PPTase activity. Biochemical Sfp PPTase activity, qHTS. Potency, µM, inactives show max response, negative = inhibition, hits mostly inhibitors. Q9F4F7. 310,000 tested, 3.5% active. AID 1490; active = well fitted inhibition curve with a large enough effect; inconclusive = small, poorly fitted or top-dose-only effect, or another doubt; inactive = no such curve, though single readings can be large or run the other way;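 also: the enzyme is Sfp with the accession as filed and its product quenches rhodamine fluorescence; potency is read from the fitted curve at half-maximal effect; 0% = enzyme reaction without inhibitor and -100% = no enzyme wells; top concentration of the series not given in the record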
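With Hepes-Na pH 7.6 buffer containing 10 mM MgCl2, Sfp (15 nM) modified BHQ-2-YbbR (12.5 uM) using rhodamine-CoA (5 uM). Two reads 30 minutes apart at 525/598 nm yielded each well's rate.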
ClpP mod: qHTS Assay for Activators of ClpP; ATP-dependent Clp protease proteolytic subunit (Bacillus subtilis (strain 168)), P80244; purified B. subtilis ClpP, FRET peptide cleavage, 20 min; Potency, µM (series often up to 57.5 µM), inactives show at the highest dose activity change, negative = active; 340,000 tested, 1.9% active; AID 651965, 2013; active = well fitted falling curve with a large enough effect; inconclusive = small, poorly fitted or top-dose-only effect; inactive = no such curve, though single readings can be large or run the other way; also: potency is read from the fitted curve at half-maximal effect; the source files actives as falling curves though it sought activators and does not explain the sign; nearly all actives have a fitted effect of over 65% in size; many hits overshoot -100%
Target sequence (P80244 whole entry, looked up): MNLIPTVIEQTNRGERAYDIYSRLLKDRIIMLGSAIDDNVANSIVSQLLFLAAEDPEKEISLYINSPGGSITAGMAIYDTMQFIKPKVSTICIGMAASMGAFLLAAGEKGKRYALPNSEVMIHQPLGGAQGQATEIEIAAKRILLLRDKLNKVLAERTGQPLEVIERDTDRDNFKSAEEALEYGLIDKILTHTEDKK
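ClpP 10 microg/mL final, pH 8 Tris/KCl buffer with BSA, glycerol, Tween-20; compound pinned in; FRET-FV substrate; RT 20 min; Ex320/Em430; ΔFRET vs ADEP 5.8 microM, DMSO, no enzyme.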
TRPV1 potentiator: human TRPV1 potentiation. AID 540277. 320,000 tested, 0.02% active. potentiation, % at 8.33 µM. TRPV1-expressing cells, Fluo-8 calcium influx, capsaicin EC20 potentiation; host cell line not named in the record; control for the full effect not named in the record; active means potentiation above 80%; inconclusive means 30% to 80%; inactive means below 30%; also: 0% is about no effect
Target sequence (Q8NER1 whole entry, looked up): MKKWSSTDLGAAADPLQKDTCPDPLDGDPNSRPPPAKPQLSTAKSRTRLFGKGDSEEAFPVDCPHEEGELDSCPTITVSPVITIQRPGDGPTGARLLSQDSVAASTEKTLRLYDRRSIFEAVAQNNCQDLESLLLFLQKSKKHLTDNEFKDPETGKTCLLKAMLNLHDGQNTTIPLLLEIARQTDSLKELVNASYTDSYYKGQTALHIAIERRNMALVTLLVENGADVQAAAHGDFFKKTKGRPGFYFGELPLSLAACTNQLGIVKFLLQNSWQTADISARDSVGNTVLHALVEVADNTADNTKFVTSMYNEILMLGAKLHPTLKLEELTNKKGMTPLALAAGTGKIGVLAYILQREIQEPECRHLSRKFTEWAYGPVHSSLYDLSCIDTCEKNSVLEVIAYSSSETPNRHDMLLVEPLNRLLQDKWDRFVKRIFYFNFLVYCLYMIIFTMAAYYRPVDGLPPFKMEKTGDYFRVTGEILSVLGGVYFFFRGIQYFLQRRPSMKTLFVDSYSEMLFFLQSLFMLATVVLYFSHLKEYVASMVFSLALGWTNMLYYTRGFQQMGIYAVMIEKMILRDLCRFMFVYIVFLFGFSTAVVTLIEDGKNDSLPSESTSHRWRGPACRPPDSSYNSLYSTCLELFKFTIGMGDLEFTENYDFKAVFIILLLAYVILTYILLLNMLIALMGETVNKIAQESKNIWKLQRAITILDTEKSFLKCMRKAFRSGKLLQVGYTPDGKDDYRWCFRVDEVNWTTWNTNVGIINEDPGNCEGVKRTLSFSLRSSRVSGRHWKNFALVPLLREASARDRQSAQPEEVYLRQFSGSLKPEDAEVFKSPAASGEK
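Cells expressing TRPV1 were dye-loaded with Fluo-8 and read kinetically: 10 s baseline, 3 min after compound (agonist portion), then 2 min after EC20 capsaicin (allosteric enhancer portion). Calcium-bound dye fluorescence at 480/520 nm.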
CtBP-E1A inh: inhibitors of CtBP/E1A interaction; 340,000 tested, 0.49% active; AlphaScreen GST-E1A/His-CtBP binding, 1536-well; active compounds read low; control for the full effect not named in the record; AID 651724; activity change, % (test concentration not listed); in the data active means activity change below about -65%; inconclusive means about -30% to -65%; inactive means above about -30%; also: % is scaled to controls: 0 for no effect and ±100 for the full control effect
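AlphaScreen with 125 nM GST-E1A and 125 nM His-CtBP (5X stocks) in Tris pH 8.0, 300 mM NaCl, BSA, Tween 20, TCEP. Compounds preincubated 2 h at 37 deg C, then glutathione donor/nickel acceptor beads added for 1 h at 37 deg C in dark.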
* = called active by the depositor; i = inactive; ? = inconclusive; . = not tested or not shown; & = joins results of further samples; [ ] = another dose, or the depositor's remark.

Every second line gives: CtBP-E1A inh | gsp ag | TRPV1 potentiator | Sfp PPTase inh | ClpP mod | gsp antagonist | Menin-MLL FL inh
O=C(COC(=O)c1ccncc1)c1ccc(Cl)c(Cl)c1
→ 1 | 12%[15.4 µM] | -2 | 18% | . | 8% | 5.2
Cc1ccc(C(=O)N/C(=C\c2cn(C)c3ccccc23)C(=O)N2CCOCC2)cc1
→ 3 | -3% | 1 | -7% | 0.2% | 4% | -4.2
CCCCNc1c(-c2ccc(SC(C)CC)cc2)nc2ccccn12 (centres undefined)
→ -5&-21 | ? | 6 | . | 3.9%&4.7% | ? | .
CN=C1S/C(=C\c2ccc(Sc3ccc(Cl)cc3)o2)C(=O)N1C
→ . | . | -13 | -12% | . | . | 6.6
CN(C)c1ccc(/C=N/NC(=O)c2ccc(NC(=O)c3ccccc3)cc2)cc1
→ -4 | -21%[15.4 µM] | -6 | -3% | . | 4% | 7.3
CCN(CC)C(=O)C1=C(C)N(CCCN2CCCC2=O)C(=O)C(CC(=O)NCc2cccc3ccccc23)C1 (centres undefined)
→ -18 | -36%[inhibitor] | . | . | -2.6% | . | .
C#Cc1ccc([C@H]2C=C(C(=O)OCC=C)O[C@@H](OCC)[C@@H]2CCCO)cc1
→ 1 | . | -9 | 4% | -1.6% | ? | -9.3
COc1cc(C(=O)N/N=C/c2ccc(OC(=O)c3cccc(C)c3)cc2)ccc1O
→ -13 | 15%[15.4 µM] | 5 | 13% | 4.4% | ? | 0.6
COc1cc(NC(=O)c2ccc(C)cc2C)ccc1NC(=O)c1cccs1
→ -11 | 1%[15.4 µM] | -15 | 10% | -1.8% | -9% | -8.5
Cc1ccccc1NC(=O)Cc1nc(COC(=O)Cc2c(F)cccc2Cl)cs1
→ . | 27% | -11 | . | -1.1% | -19% | .
CC(OC(=O)c1ccc(Cl)c(S(=O)(=O)N2CCc3ccccc32)c1)C(=O)Nc1ncc(Cl)cc1Cl (centres undefined)
→ 21 | -1% | -3 | 11% | -0.5% | 6% | 9.8
Cc1ccccc1C(=O)NCC(=O)OCC(=O)NNC(=O)c1ccccc1F
→ -24 | -9% | . | . | 0.8% | . | .
CCCCCCn1c(=O)c(-c2ccccc2)c(O)c2ccccc21
→ ? | -2% | 0 | -12% | ? | -5% | 2.9
C#CCN1C=C(C(=O)OCC)C(C)N(Cc2ccccc2I)S1(=O)=O (centres undefined)
→ 11 | . | . | . | 0.5% | 7% | .
Cc1nnc(SC(C)C(=O)Nc2ccc(S(=O)(=O)N3CCCCCC3)cc2)s1 (centres undefined)
→ 7 | 3% | -15 | -1% | 0.3% | -5% | -1.7
Cc1cccc(NC(=O)C(=O)NCCc2c[nH]c3ccccc23)c1C
→ -1 | -3% | 1 | -7% | . | 1% | 0.6
CC(C)CCCC(C)CCOC(=O)CN1CCCC1 (centres undefined)
→ 1 | -6%[15.4 µM] | 1 | 6% | . | 12% | 0.5
C/C(Cn1cnc([N+](=O)[O-])n1)=N\NC(=O)c1ccc(O)cc1O
→ -17 | -8%[15.4 µM] | -13 | -24% | . | 4% | -0.3
COc1ccc(O)c(C2=Nc3ccccc3N=C(c3cccs3)C2)c1
→ -4 | -22% | 13 | 3% | ? | 11% | 11
CCCCN(C)C(=O)C1CCC(CNS(=O)(=O)c2ccc3c(c2)CC(C)N3C(C)=O)CC1 (centres undefined)
→ 8 | 11% | 3 | 8% | -0.6%&-1.7% | -9% | -6.4
COc1ccc(CNC(=O)COc2ccc([N+](=O)[O-])cc2)cc1
→ 24 | ? | -2 | 22% | 1.2% | 11% | 3.0
COc1ccc(C(O)c2cnc(C)n2Cc2ccccc2)cc1 (centres undefined)
→ 0 | -61%[inhibitor] | . | . | 3.3% | . | .
COc1ccc(Cc2nnc(SCC(=O)c3ccc(OC)cc3)o2)cc1
→ 11 | -20% | -8 | 0% | 0.8% | -17% | 3.5
COC(=O)COc1ccc2oc(=O)cc(-c3cc4ccccc4o3)c2c1
→ 3 | 2% | 2 | ? | -15% | ? | .
CCOC(=O)c1c(C)[nH]c(C=Nc2ccccc2)c1O
→ . | . | 3 | 40µM* | . | . | -25
COc1cccc(C=NN2CCCCCC2)c1OC
→ -24 | 14% | . | . | . | -14% | .
CCC(=O)Nc1ccc(SC#N)cc1C
→ 6 | -109%[inhibitor] | -6 | -5% | -1.6% | 12% | 4.4
CCOC(=O)N1CCN(Cc2nc(-c3cccc(Cl)c3)no2)CC1
→ 2 | 21% | -6 | 5% | . | -4% | 0.4
COCCN1C(=O)N[C@@H](c2cccc(F)c2)C(C(=O)OC)=C1C
→ 2 | . | 19 | 6%&0% | -2.5% | -4% | -4.4[11.7 µM]
O=C(CSCc1ccc([N+](=O)[O-])cc1)Nc1ccc(S(=O)(=O)N2CCCCCC2)cc1
→ -9 | ? | -11 | 20% | 2.1% | -2% | 2.6

Brought forward from above: 5 entries; new compounds follow.
Every second line gives: CtBP-E1A inh | gsp ag | TRPV1 potentiator | Sfp PPTase inh | ClpP mod | gsp antagonist | Menin-MLL FL inh
COc1cccc(C=NN2CCCCCC2)c1OC
→ -24 | 14% | . | . | . | -14% | .
CCC(=O)Nc1ccc(SC#N)cc1C
→ 6 | -109%[inhibitor] | -6 | -5% | -1.6% | 12% | 4.4
CCOC(=O)N1CCN(Cc2nc(-c3cccc(Cl)c3)no2)CC1
→ 2 | 21% | -6 | 5% | . | -4% | 0.4
COCCN1C(=O)N[C@@H](c2cccc(F)c2)C(C(=O)OC)=C1C
→ 2 | . | 19 | 6%&0% | -2.5% | -4% | -4.4[11.7 µM]
O=C(CSCc1ccc([N+](=O)[O-])cc1)Nc1ccc(S(=O)(=O)N2CCCCCC2)cc1
→ -9 | ? | -11 | 20% | 2.1% | -2% | 2.6
COc1ccc([C@]23Cc4ccccc4C(O2)C2=C(CC(C)(C)CC2=O)O3)cc1
→ . | . | i | 5% | . | . | 1.2[11.7 µM]
Cc1ccc(OCCCC(=O)N2CCOCC2)cc1
→ 1 | 5% | -21 | -4% | 10µM* | 11% | 0.2
C=CCN(C(=O)CCC(=O)O)C1CC(=O)N(c2ccc(OC)cc2)C1=O (centres undefined)
→ 4 | 14% | 9 | 0% | -2.0% | 8% | 3.9
COc1cccc(N(C(=O)Cc2cccs2)C(C(=O)NC2CCCC2)c2ccncc2)c1 (centres undefined)
→ 2 | 14% | 3 | 16% | . | -8% | .
CS(=O)(=O)c1ccc(NC(=O)C2CC(=O)N(c3ccc4c(c3)OCCO4)C2)cc1 (centres undefined)
→ 2 | ? | 9 | . | -2.7% | 1% | .
Cc1cc(=O)[nH]c(SCC(=O)N2CCC(Cc3ccccc3)CC2)n1
→ 10 | 22%[15.4 µM] | -2 | 3% | -0.9% | -36% | 4.2
CCOC(=O)c1nnn(CC(=O)NC(=O)Nc2ccccc2)c1C(=O)OCC
→ . | 16% | 0 | 20% | 1.7% | -5% | 0.8
CCn1c(=O)c([N+](=O)[O-])c(NCCc2ccccc2)c2ccccc21
→ ? | -8% | 17 | -21% | 0.1% | 40µM* | 26
CN(C)C(=O)c1ccc(NC(=O)c2sccc2-c2ccccc2)cc1
→ 4 | ? | 3 | 3% | -1.6% | 7% | .
O=C(O)CCc1ccc(-c2ccc(Br)cc2)n1NC(=O)c1ccc([N+](=O)[O-])cc1
→ . | 16% | -1 | 13% | 1.0% | -4% | -2.3
CSCC(=O)N1CCC(n2nccc2NC(=O)c2ccc3c(c2)OCO3)CC1
→ . | -21% | -5 | 19% | -1.8% | 1% | -0.5
C=CCSc1nnc2c(n1)-c1cccc3cccc-2c13
→ -2 | . | . | . | -5.0% | -3% | .
COc1ccc(NC(=O)c2cc3c(-c4ccc(OC)c(OC)c4)nn(C)c3s2)cc1OC
→ ? | -20% | -5 | 14% | -9.1% | -24% | -1.3
CCOC(=O)CSc1nc(-c2ccccc2)nc2ccc(F)cc12
→ 5 | 9% | -11 | -1% | -22% | -6% | 0.2
CCn1c(SC(=O)NC2CCCCC2)nnc1-c1cccs1
→ 4 | ? | -9 | -7% | ? | 11% | 0.5
CC(=O)CCc1c(C)c2cc(C)ccc2[nH]c1=O
→ -4 | -2% | 15 | 12% | -19% | 6% | 4.5
O=C(CCSCCC(=O)NCc1cccs1)NCc1cccs1
→ -3 | 4% | 7 | 6% | -3.2% | -9% | 0.7
Cc1noc(C)c1NC(=O)Nc1cccc2c1O[C@H](CN(C)S(=O)(=O)c1ccccc1)[C@@H](C)CN([C@H](C)CO)C2=O
→ 4 | . | . | . | -0.9% | 7% | .
CCC(C)[C@H]1CNCCN1CCCc1cc(OC)c(OC)c(OC)c1 (some centres undefined)
→ 6 | . | -16 | . | 1.4% | 2% | .
CC(=O)Nc1ncc(Cc2ccc(Cl)cc2Cl)s1
→ 0 | 16% | 7 | 19% | -0.7% | 11% | 2.4
COc1ccc([C@H]2CC(=O)C=C(c3ccc(-c4ccccc4)c(F)c3)C2)cc1
→ . | -6% | -1 | . | -1.0% | 8% | .
Cc1cc(C(=O)O)cc(S(=O)(=O)Nc2c(C)nn(C)c2C)c1C
→ 9 | -13%[15.4 µM] | . | . | 0.0% | 4% | .
Cc1ccc(/C=N/NC(=O)Cc2c[nH]c3ccccc23)c(C)c1
→ -4 | 0% | 2 | -18% | 2.0% | 9% | 4.2
CC1CN(Cc2ccc(C#N)cc2Cl)CC(C)O1 (centres undefined)
→ 5 | 19% | 10 | 12% | -1.0% | 7% | 0.7
Nn1c(COc2ccccc2F)nnc1SCC(=O)NC1CC1
→ 11 | -6% | 26 | . | 0.7% | 14% | .
Cc1nc(-c2ccc(Cl)cc2)sc1C1(C)CC(c2ccc(C#N)cc2)=NO1 (centres undefined)
→ -6 | . | -30 | -4% | ? | 6% | 2.1
Cc1onc(-c2ccccc2)c1C(=O)N=C(N)c1ccc(C(F)(F)F)cc1
→ -2 | 2%[15.4 µM] | 8 | 10% | . | 13% | 2.4
Cc1cc2cc(C)c(NCCNC(=O)c3ccccc3Cl)nc2cc1C
→ -6 | ? | 6 | -16% | 3.6% | -7% | -0.3
N#Cc1ccc(OCC(O)CS(=O)(=O)c2ccccc2)cc1 (centres undefined)
→ 0 | 21%[15.4 µM] | 1 | 2% | -10% | 5% | 4.8
